High-throughput results (PubChem BioAssay)
Six1-Eya2 blk: qHTS Assay for Inhibitors of the Six1/Eya2 Interaction | AlphaScreen GST-Six1/His-Eya2 binding, biochemical; active compounds read low; control for the full effect not named in the record | activity change, % (test concentration not listed) | 0.56% of 360,000 active | AID 651725, 2012; in the data active = activity change below about -65%; inconclusive = about -30% to -65%; inactive = above about -30%; further: on the % scale 0 is the no-effect control and ±100 the full control effect
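Six1/Eya2 binding was read as AlphaScreen signal after compounds were pinned into GST-Six1 plus His-tagged Eya2 (5X stock 250/500 nM) in pH 8.0 Tris/NaCl/TCEP buffer, beads added, then incubated 1 h, 37 C, dark.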
TRPML1 inh: qHTS for Inhibitors of the Human Mucolipin Transient Receptor Potential 1 (TRPML1); Mucolipin-1 (Homo sapiens), Q9GZU1; TRPML1-inducible cells, Ca2+ dye fluorescence, FDSS; active compounds read low; inhibition of EC80 agonist-evoked calcium signal; activity change, negative = inhibition, % (test concentration not listed); 0.02% of 390,000 active; AID 624415, 2012; in the data active means activity change below about -50%; inconclusive means about -30% to -50%; inactive means above about -30%;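 further: stimulus is agonist 54-4 at its EC80 concentration; on the % scale 0 is the no-effect control and ±100 the full control effect; compound concentration not given in the record; the text of the record puts the active cut at -80%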
Target sequence (Q9GZU1 whole entry, looked up): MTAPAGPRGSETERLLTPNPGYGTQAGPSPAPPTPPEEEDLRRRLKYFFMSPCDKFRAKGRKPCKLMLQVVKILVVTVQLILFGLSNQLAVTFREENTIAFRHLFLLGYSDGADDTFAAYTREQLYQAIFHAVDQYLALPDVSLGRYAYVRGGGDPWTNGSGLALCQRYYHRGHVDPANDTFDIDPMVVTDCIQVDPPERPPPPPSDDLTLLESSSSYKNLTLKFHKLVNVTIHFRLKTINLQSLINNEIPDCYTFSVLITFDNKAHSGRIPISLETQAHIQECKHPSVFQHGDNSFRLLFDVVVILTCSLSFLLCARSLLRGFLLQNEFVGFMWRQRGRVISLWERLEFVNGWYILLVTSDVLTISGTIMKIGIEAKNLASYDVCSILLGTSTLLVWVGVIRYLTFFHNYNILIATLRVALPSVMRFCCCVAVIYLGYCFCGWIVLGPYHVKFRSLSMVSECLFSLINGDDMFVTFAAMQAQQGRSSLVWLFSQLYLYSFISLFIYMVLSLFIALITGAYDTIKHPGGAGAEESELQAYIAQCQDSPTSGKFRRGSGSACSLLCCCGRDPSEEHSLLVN
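Calcium fluorescence in TRPML1-DL cells induced overnight with Tet: a 110 s read after compound pin addition, then a 110 s antagonist read after challenge with 54-4 at 4 uM final (EC80).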
PINK1 modulator: A Quantitative High throughput Screen to Identify Chemical Modulators of PINK1 Expression; Potency, µM (top dose mostly 76.6 µM), without a hit: at the highest dose activation (PINK1 increase), hits mostly activators; PINK1 immunofluorescence, high-content cytometry, 24 h; 0.2% of 410,000 active; AID 624263, 2012; active = well fitted activation curve with a large enough effect; inconclusive = small, poorly fitted or top-dose-only effect; inactive = flat fitted curve, though single readings scatter; cell line not stated here;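 further: potency means the concentration at half of the fitted maximal effect; % of control where 0% means no effect; nearly all actives have a fitted effect of over 65% in size; a mitochondrial uncoupler was the plate control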
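PINK1 protein, normally rapidly degraded, was detected by immunofluorescence after 24 hour compound treatment of a stable cell line. Titration data (5 concentrations) came from laser-scanning cytometry, with CCCP-treated wells as controls.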
D2 agonist: Beta-Arrestin HTS for Positive Allosteric Modulators of the Human D2 Dopamine Receptor: Agonists; D(2) dopamine receptor (Homo sapiens), P14416; DiscoveRx PathHunter D2 beta-arrestin, luminescence, 90 min; 100% = 57 uM dopamine signal; activation, % (no concentration beside the values); 0.084% of 360,000 active; in the data active = activation above about 40%; inconclusive = about 15% to 40%; inactive = below about 15%; further: compound concentration not given in the record; the text of the record calls up to 30% inactive
Target sequence (P14416 whole entry, looked up): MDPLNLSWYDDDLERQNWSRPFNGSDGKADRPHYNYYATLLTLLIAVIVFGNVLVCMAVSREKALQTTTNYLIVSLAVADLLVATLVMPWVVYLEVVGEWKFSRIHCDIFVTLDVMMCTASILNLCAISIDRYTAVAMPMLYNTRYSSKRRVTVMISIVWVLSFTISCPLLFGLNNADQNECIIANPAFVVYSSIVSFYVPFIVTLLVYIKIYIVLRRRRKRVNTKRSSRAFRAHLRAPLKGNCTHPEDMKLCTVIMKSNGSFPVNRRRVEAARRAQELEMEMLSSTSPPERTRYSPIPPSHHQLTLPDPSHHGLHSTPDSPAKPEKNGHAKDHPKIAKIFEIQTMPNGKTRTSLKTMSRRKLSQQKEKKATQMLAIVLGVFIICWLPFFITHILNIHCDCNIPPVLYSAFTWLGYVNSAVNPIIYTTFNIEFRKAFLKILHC
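Agonist mode: compounds alone added to overnight-plated D2 PathHunter cells for 90 min at 37 C, with 57 uM final dopamine (EC100) defining full response. Beta-arrestin recruitment detected by chemiluminescent reagent, read after 1 h at ambient temperature.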
D2 potentiator: Beta-Arrestin HTS for Positive Allosteric Modulators of the Human D2 Dopamine Receptor: Potentiators. potentiation, % (no concentration beside the values). DiscoveRx D2 beta-arrestin cells, luminescence, 90 min; 100% = 57 uM dopamine signal. D(2) dopamine receptor (Homo sapiens), P14416. 0.23% of 360,000 active; active = potentiation of 50% or more; inconclusive = 30% to 50%; inactive = 30% or less;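 further: compound concentration not given in the record; tested on top of an EC20 dose of dopamine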
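PathHunter D2 cells, attached overnight at 37 deg C, received compound in DMSO plus dopamine at EC20 (50 nM final) for 90 min at 37 deg C. Beta-arrestin recruitment was read as luminescence after 1 h with detection reagent at ambient temperature.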
TRPML1 ag: qHTS for Agonists of the Human Mucolipin Transient Receptor Potential 1 (TRPML1) | Mucolipin-1 (Homo sapiens), Q9GZU1 | TRPML1-expressing cells, Ca2+ dye fluorescence, FDSS; host cell line not named in the record; reference of the full effect not given here | activation, % (test concentration not listed) | 0.12% of 410,000 active; in the data active = activation above about 50%; inconclusive = about 30% to 50%; inactive = below about 30%; further: 0% is about no effect; the text of the record puts the active cut at 80%
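Tet-induced TRPML1-DL cells, 1,500 per well, cultured overnight, were loaded with a no-wash Ca2+ dye for 45–90 min. Calcium fluorescence was recorded on the FDSS for 110 s after compound addition, before the EC80 agonist (4 uM 54-4) was added.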
Starred values were filed as active, the others as inactive; ? = inconclusive; / = not tested or not shown; [ ] = another dose, or the depositor's remark.

SMILES | Six1-Eya2 blk | TRPML1 inh | PINK1 modulator | D2 agonist | D2 potentiator | TRPML1 ag
Cc1ccc(S(=O)(=O)Nc2cccc(Cl)c2)cc1NC(=O)c1cccnc1 | 5.0 | 8.4 | 1.3% | -0.1 | -3.1 | -0.2
CCCOC1CCCN(C(=O)CCc2nnc(-c3ccc4c(c3)OCO4)o2)C1 (configuration not stated) | 15.0 | -13.1 | -0.8% | -1.3 | -13.7 | -0.2
CCCC(=O)N1CCC1(C)C(=O)Nc1ccc(OC(F)F)cc1 (configuration not stated) | 8.8 | / | 0.4% | 1.4 | -8.4 | -0.9
Cc1cccc(CC(C)NC(=O)CCc2nnc(-c3ccccc3)o2)n1 (configuration not stated) | 8.5 | 36.2 | 1.3% | -0.8 | -6.9 | -0.5
O=C(N1CCCC1)C12CC3CCC(CC(C3)C1)C2 | 8.1 | 8.4 | 1.8% | -0.7 | 3.1 | -0.6
Cc1cccc(C)c1NC(=O)CN1N=NC2C(=O)N(c3cccc(Cl)c3)C(=O)C21 (configuration not stated) | -5.6 | 1.0 | -1.2% | -3.1 | -1.9 | -0.7
Cc1ccnc(NC(=O)c2cccc([N+](=O)[O-])c2C)c1 | 0.2 | -10.6 | 5.8% | 2.9 | -2.8 | -0.7
CCOc1ccc(CNC(=O)C2CCN(C3=NS(=O)(=O)C(c4ccc(C)cc4)=C3CC)CC2)cc1 | / | 23.0 | -1.6% | / | / | 4.3
CN1CCN(c2ccc([N+](=O)[O-])c(Sc3nc4ccccc4[nH]3)c2)CC1 | -6.8 | -6.4 | 6.1% | -5.5 | -36.4 | -0.4
CNc1cccc(-c2cccc(C(=O)N3CCOCC3)c2)n1 | 0.9 | / | 0.9% | 3.3 | -6.5 | -0.2

Quoted at random: 4 entries already listed.
SMILES | Six1-Eya2 blk | TRPML1 inh | PINK1 modulator | D2 agonist | D2 potentiator | TRPML1 ag
CCCOC1CCCN(C(=O)CCc2nnc(-c3ccc4c(c3)OCO4)o2)C1 (configuration not stated) | 15.0 | -13.1 | -0.8% | -1.3 | -13.7 | -0.2
CCOc1ccc(CNC(=O)C2CCN(C3=NS(=O)(=O)C(c4ccc(C)cc4)=C3CC)CC2)cc1 | / | 23.0 | -1.6% | / | / | 4.3
CCCC(=O)N1CCC1(C)C(=O)Nc1ccc(OC(F)F)cc1 (configuration not stated) | 8.8 | / | 0.4% | 1.4 | -8.4 | -0.9
Cc1cccc(C)c1NC(=O)CN1N=NC2C(=O)N(c3cccc(Cl)c3)C(=O)C21 (configuration not stated) | -5.6 | 1.0 | -1.2% | -3.1 | -1.9 | -0.7

The list goes on.
SMILES | Six1-Eya2 blk | TRPML1 inh | PINK1 modulator | D2 agonist | D2 potentiator | TRPML1 ag
COc1ccccc1NC(=O)C12CCC(C)(C(=O)C1)C2(C)C (configuration not stated) | 1.4 | -10.3 | 1.2% | -4.7 | -0.4 | 2.4
COc1cccc(Cn2c(=O)n(-c3ccc(C)c(F)c3)c(=O)c3sc4ccccc4c32)c1 | / | 5.0 | 4.3% | / | / | -0.4
CCN(CC)C(=O)C1=C(C)N(Cc2ccccc2)C(=O)C(CC(=O)NCCN2CCOCC2)C1 (configuration not stated) | 24.9 | -2.2 | 0.9% | 5.4 | 5.9 | -0.9
Cc1cccc(C)c1OCC(=O)Nc1ccncc1 | -4.8 | 3.2 | -1.2% | 1.0 | -0.1 | 0.1
COc1ccccc1NC(=O)CCC(=O)OCc1ccc([N+](=O)[O-])cc1 | 19.4 | -6.9 | 1.1% | -4.4 | -3.6 | 0.8
Cn1c(SCC(=O)NC2CCS(=O)(=O)C2)nnc1-c1ccco1 (configuration not stated) | -3.2 | 10.0 | 2.4% | -1.4 | -2.6 | -0.5
O=C(O)c1c(-c2ccccc2)c(-c2ccccc2)nc2ccccc12 | -1.2 | 7.9 | 2.1% | -1.5 | 0.1 | -0.2
CCCc1nc(SCC(=O)c2ccc(OC)cc2)c2ccccc2n1 | 5.1 | -12.3 | 0.0% | -0.4 | -4.0 | 1.9
O=C(OCC(=O)N1CCCCC1)c1ccc(OC(F)(F)F)cc1 | -6.6 | -2.7 | 2.1% | -0.9 | -9.8 | 0.2
CCCCNC(=O)[C@H]1C[C@H]1[C@@H](O)[C@H](CO)NC(=O)[C@H](Cc1ccccc1)NC(=O)OC(C)(C)C | 1.3 | -14.6 | 0.0% | 0.7 | -3.5 | -0.6
Cc1c(Cl)cccc1NC(=O)CCn1nc(C)c2c(C)n(-c3ccccc3)nc2c1=O | / | -19.3 | 0.9% | / | / | -0.7
Cc1cnc(C(=O)Nc2cccc(S(=O)(=O)N(C)C)c2)cn1 | 5.8 | 1.4 | -0.1% | 1.8 | 17.6 | -0.3
O=C(NCc1ccccc1)C1c2ccccc2OCC(=O)N1Cc1cccnc1 (configuration not stated) | 12.2 | / | 0.5% | / | / | 0.0
O=C1c2ccccc2C(=O)N1Cc1ccccn1 | -0.2 | -0.9 | 3.4% | 3.6 | -3.7 | 0.2
O=C(COC(=O)/C=C/c1ccc(F)cc1)NCc1ccc2c(c1)OCO2 | 0.1 | 1.5 | -0.7% | -2.2 | -5.9 | -0.4
O=C(c1ccc(Cl)cc1)n1nc(-c2cccnc2)nc1NCc1ccc(F)cc1 | / | -6.3 | 5.6% | / | / | 0.0
CCOC(=O)c1cc(C)[nH]c1C | 1.3 | -21.0 | 5.6% | -19.6 | -9.8 | 0.8
N#CCc1ccc(OC(=O)c2cccnc2)cc1 | -3.7 | -22.3 | -2.0% | -2.2 | -3.4 | 0.0
CN(C)C(=S)Nc1ccc([N+](=O)[O-])cc1 | 1.5 | 3.1 | 1.5% | -3.2 | -12.0 | 0.8
COC(=O)c1ccc(NC(=O)CSCC(=O)OCC(=O)c2ccc(Br)cc2)cc1 | -0.4 | -15.9 | -0.9% | -5.6 | -22.2 | 1.7
Cc1ccc2cc3cc(C(=O)N4CCN(Cc5ccccc5)CC4)sc3nc2c1 | 5.6 | 15.8 | 7.2% | -3.8 | -6.0 | 0.4
COc1ccc(OC(C)C(=O)N(C)Cc2nc(-c3ccccc3)no2)cc1 (configuration not stated) | -16.2 | 1.8 | -0.3% | 1.1 | 4.7 | -0.6
CCOc1ccccc1Nc1sc(C(=O)c2ccccc2)c(N)c1C(=O)Nc1ccc(F)cc1 | / | 18.2 | 1.2% | / | / | 3.5
CCOC(=O)N1CCN(C(=O)c2cccn3c(=O)c4sccc4nc23)CC1 | -1.2 | -5.5 | -2.9%[38.3 µM] | -2.8 | -9.1 | -0.6
COC(=O)[C@@]12CCCN1[C@H](c1ccc(-c3ccc4c(c3)OCO4)cc1)[C@H]1C(=O)N(C)C(=O)[C@H]12 | -1.2 | -0.7 | -0.6% | -1.3 | -6.7 | 0.3
CC(=O)N1[C@H](C)C=C[C@]1(Cc1ccccc1)C(=O)NCCN1CCOCC1 | -1.1 | -6.5 | 2.3% | -3.6 | -15.1 | -0.4
O=C(Nc1cc([N+](=O)[O-])ccc1F)C1CCN(S(=O)(=O)c2cccs2)CC1 | 0.8 | 28.6 | -3.5% | -2.3 | 0.9 | 0.1
CC(Sc1nnc(N)s1)C(=O)c1c(N)n(C)c(=O)n(C)c1=O (configuration not stated) | -11.8 | 0.4 | -1.3% | -0.9 | -8.8 | -0.2
CCOC(=O)CNC(=O)C1Cc2ccccc2CN1S(=O)(=O)c1cccs1 (configuration not stated) | 2.1 | -28.3 | 1.4% | -3.2 | -5.3 | 0.1
Cc1cc(C)cc(C(=O)NC(CC(N)=O)c2ccc(N3CCN(c4ccccn4)CC3)c([N+](=O)[O-])c2)c1 (configuration not stated) | 4.2 | -18.5 | 1.0% | -2.3 | -11.8 | -0.6
Cc1csc2nc(COC(=O)c3ccc(NC(=O)C(C)Oc4ccccc4)cc3)cc(=O)n12 (configuration not stated) | / | -19.5 | -0.3% | / | / | 2.1
COc1ccc(NC(=O)CSCC(=O)Nc2nnc(CC(C)C)s2)cc1 | -7.3 | 25.4 | -4.5% | 1.6 | -1.7 | 1.7
CCC(C)n1c(=N)c(C(=O)NCc2ccccc2)cc2c(=O)n3cc(C)ccc3nc21 (configuration not stated) | / | 11.7 | 0.2% | / | / | -1.0
Cc1ccc(-n2nnnc2SCC(=O)NC2CCS(=O)(=O)C2)c(C)c1 (configuration not stated) | 3.9 | 13.1 | -2.0% | -0.5 | -17.6 | 1.6
COCCOC(=O)C1=C(C)N=C2SCCC(=O)N2C1/C=C/c1ccccc1 (configuration not stated) | -24.5 | 16.7 | 0.8% | -4.9 | -10.0 | -1.4
COc1ccccc1CNC(=O)C1CCCN(S(=O)(=O)c2ccc3c(c2)C(C)(C)C(=O)N3C)C1 (configuration not stated) | 7.6 | 4.1 | 1.6% | -1.4 | -3.1 | -0.3
COc1ccccc1C(=O)NCCC(=O)N1CCN(c2cccc(C(F)(F)F)c2)CC1 | 21.5 | -21.1 | 1.6% | -8.6 | -30.2 | 1.8
C/C(=N\NC(=O)c1cc(-c2ccncc2)nc2ccccc12)c1ccc(OC(F)F)cc1 | -3.6 | -11.3 | 1.6% | 6.6 | 4.2 | 1.5
CC(C)CN(C(=O)CCCOc1ccc(Cl)cc1Cl)c1c(N)n(Cc2ccccc2)c(=O)[nH]c1=O | -2.0 | 2.3 | 0.3% | -3.3 | -4.6 | 0.2
CCc1nnc2n1N=C(c1ccccc1)CS2 | 9.4 | -6.3 | -0.1% | -1.1 | -4.9 | 0.4
Oc1ccc(C2Nc3cccc4cccc(c34)N2)cc1 | -1.2 | 9.5 | -0.1% | -4.8 | -29.6 | -0.2
COc1ccc(-n2c(=O)c3c(c4cc(OC)ccc4n3C)n(CC(=O)NCC3CCCO3)c2=O)cc1 (configuration not stated) | / | -2.9 | 1.5% | / | / | -0.5
CCC(C)NS(=O)(=O)c1ccc(OCC(=O)N2CCCCC2)cc1 (configuration not stated) | 25.6 | 18.2 | / | -1.9 | 8.7 | 0.2
CC1(C(=O)NS(=O)(=O)C2CC2)CCN(C(=O)COc2ccc(Cl)cc2Cl)C1 (configuration not stated) | 0.8 | 93.4 | 0.0% | -2.5 | -11.7 | 3.6
COc1cc(/C=C2\N=C(C)OC2=O)cc(Cl)c1OC(C)=O | 3.3 | ? | -1.6% | 5.0 | 2.2 | 2.2
O=C(NCc1ccccc1)/C(=C/c1ccc([N+](=O)[O-])cc1)NC(=O)c1ccco1 | -10.3 | -1.3 | -0.1% | -1.5 | -5.7 | 0.3
COc1cccc(N(CC(=O)Nc2ccccc2C(=O)N2CCCC2)S(C)(=O)=O)c1 | 6.3 | 0.2 | 4.0% | -6.7 | -7.6 | -1.6
O=C(c1cccs1)N1CCc2ccccc2C1 | 0.8 | -4.4 | 1.4% | -4.1 | -1.1 | 0.9
CC(=O)Nc1ccccc1/C=C/c1ccc2c(C)ccc(O)c2n1 | -1.0 | -1.9 | 15.9% | 2.5 | -9.4 | -0.4
